Mtb H37Rv – M. tuberculosis H37Rv growth inhibitors, H37Rv strain (AID 1626). M. tuberculosis H37Rv growth inhibition; higher % means a stronger effect. inhibition, % at 10 µM, or IC50 in µM where a hit was titrated. 220,000 tested, 0.95% active;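 active means confirmed in a dose series; inconclusive means inhibition above 80% but not taken into the dose series; inactive means below 80% or under 30% at every dose of the series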;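 further: bacteria incubated seven days before Alamar blue readout; 0% = bacteria only wells and 100% = bacteria with antibiotic wells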
Arbovirus anti – antivirals against arbovirus infection, primary screen, cell-based, full library, 10K replicate subset; 200,000 tested, 0.37% active; inhibition, % at 10 µM; arbovirus infection cell-based antiviral screen;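 active means inhibition from about 30%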;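 further: bluetongue infection of BSR cells; cell survival read as ATP light after 72 h; 0% = infected wells without compound and 100% = uninfected wells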
Mtb betalactam – beta-lactam sensitization of Mtb H37Rv, H37Rv; M. tuberculosis H37Rv growth with meropenem, percent inhibition; hits of this screen are not shown here; AID 434955, 2010; 330,000 tested, 0.27% active; inhibition, % at 25 µM;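 active means about 74% or more and at least 40 points above the plate without the antibiotic, then above 30% in a dose series; inconclusive means first-round hits that could not be retested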;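 further: growth measured after seven days incubation then overnight dye step; 0% = bacteria only wells and 100% = bacteria with antibiotic; twin plates without the antibiotic show which effects depend on it; some results filed as inactive read as strong as hits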
RecA intein inh – Mtb RecA intein splicing inhibitors, primary screen, biochemical, fluorescence, HTS; cell-free RecA intein splicing; AID 2221, 2009; inhibition, %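 (about 9 µM by stock and volumes)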; 290,000 tested, 0.75% active; in the data active means inhibition above about 30%; inconclusive means no clear call, values can overlap the other calls;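 further: 0% = vehicle wells and 100% = reference inhibitor control wells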
Target sequence (P9WHJ3 whole entry, looked up): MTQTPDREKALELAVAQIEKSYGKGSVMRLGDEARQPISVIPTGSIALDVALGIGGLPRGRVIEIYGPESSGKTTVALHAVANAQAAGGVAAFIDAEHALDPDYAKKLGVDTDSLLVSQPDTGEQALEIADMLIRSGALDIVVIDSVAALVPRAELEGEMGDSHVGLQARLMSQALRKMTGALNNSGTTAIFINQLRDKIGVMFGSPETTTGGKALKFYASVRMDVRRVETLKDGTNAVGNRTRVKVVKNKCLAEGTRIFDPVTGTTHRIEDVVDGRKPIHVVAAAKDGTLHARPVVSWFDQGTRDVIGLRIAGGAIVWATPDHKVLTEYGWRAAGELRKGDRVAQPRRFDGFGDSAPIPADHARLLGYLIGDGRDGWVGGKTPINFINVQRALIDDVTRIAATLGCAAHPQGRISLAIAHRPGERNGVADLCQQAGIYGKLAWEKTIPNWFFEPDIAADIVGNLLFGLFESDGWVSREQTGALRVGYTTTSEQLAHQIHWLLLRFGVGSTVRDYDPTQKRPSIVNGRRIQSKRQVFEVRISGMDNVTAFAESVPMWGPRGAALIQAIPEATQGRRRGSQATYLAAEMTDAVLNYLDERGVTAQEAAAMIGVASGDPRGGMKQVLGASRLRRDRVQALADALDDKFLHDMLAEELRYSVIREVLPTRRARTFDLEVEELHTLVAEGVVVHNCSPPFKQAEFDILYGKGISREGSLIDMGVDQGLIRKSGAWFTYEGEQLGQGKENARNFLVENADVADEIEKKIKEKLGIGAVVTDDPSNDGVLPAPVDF
YopH inh – YopH tyrosine phosphatase inhibitors, primary screen, biochemical, fluorescence Ex485/Em525. inhibition, %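 (about 10 µM by stock and volumes)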. 140,000 tested, 0.16% active. AID 898, 2007;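 active means inhibition of 50% or more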;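 further: controls were vehicle for no effect and minimum signal wells for full effect; inactives centre near -20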
Arbovirus anti repeat – second read-out of Arbovirus anti, no call of its own (marks repeat the call); inhibition, %; measured here: 10K subset replicate screen; many hits read low in the repeat;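 first of two repeat runs on a subset; 0% = infected and 100% = uninfected wells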
The depositor's hits bear a star; i = inactive; ? = inconclusive; / = not tested or not shown.

SMILES | Mtb H37Rv | Arbovirus anti | Mtb betalactam | RecA intein inh | YopH inh | others
CCOCCCNC(=O)C(NC(=O)c1ccc(=O)[nH]c1)c1ccc(C)cc1 (stereo unspecified) | -7% | 2 | -4 | 2.5 | -41
C=CCN1C(=O)CSc2ccc(C(=O)NCc3ccco3)cc21 | 3% | 3 | / | 1.5 | -19
O=[N+]([O-])c1cc(S(=O)(=O)N2CCCC2)ccc1OCc1ccccc1 | / | / | 3 | -0.9 | /
O=C1N(c2ccccc2)C[C@@H]2C[C@@H](c3cc4ccccc4o3)N3CCC[C@@]123 | 1% | -13 | / | 4.0 | /
O=c1oc2ccccc2nc1/C=C(\O)c1ccc(Br)cc1 | 3.6µM* | / | 99 | -5.5 | /
COc1ccc(Nc2nc(N3CCOCC3)nc(N3CCOCC3)n2)c(OC)c1 | / | / | -2 | 0.5 | /
COc1ccc(C2N(c3ccccc3)CCN2c2ccccc2)cc1O | 9% | 5 | -13 | 2.1 | /
COc1ccc(C2C(C#N)=C(N)N(c3ccccc3)C3=C2C(=O)CCC3)cc1Cn1cc([N+](=O)[O-])cn1 (stereo unspecified) | 7% | 2 | -5 | 11 | -31
Cc1nn(CC(=O)N2CCC(C)CC2)c(=O)c2cccn12 | / | / | -3 | 1.7 | /
C(=N\Nc1ncnc2nc[nH]c12)/c1cccs1 | -6% | -8 | -3 | -1.9 | /

Reprinted from the part before: 2 entries; new compounds follow.
SMILES | Mtb H37Rv | Arbovirus anti | Mtb betalactam | RecA intein inh | YopH inh | others
Cc1nn(CC(=O)N2CCC(C)CC2)c(=O)c2cccn12 | / | / | -3 | 1.7 | /
C(=N\Nc1ncnc2nc[nH]c12)/c1cccs1 | -6% | -8 | -3 | -1.9 | /
COc1ccc(N2CCN(S(=O)(=O)c3c(C)noc3/C=C/N(C)C)CC2)cc1 | / | / | -4 | -0.1 | /
Cc1cc(C(=O)CSc2nn3c(=O)c(C(C)(C)C)nnc3s2)c(C)n1-c1ccc(F)cc1 | -3% | -9 | -5 | 13 | 2
CC(=O)N1N=C(c2ccncc2)OC1(Cc1ccccc1)Cc1ccccc1 | 13% | / | -8 | 8.3 | /
Cc1ccc(NC(=O)c2ccc(Cn3cc([N+](=O)[O-])cn3)cc2)c(C)c1 | 11% | -6 | 19 | -0.3 | -21
CCN(C(=O)c1cc2c(=O)n3ccccc3nc2s1)C1CCCCC1 | / | / | 0 | -38 | /
CC1CN(C(=O)CSc2nnc3c(Cl)cc(Cl)cn23)CC(C)O1 (stereo unspecified) | -6% | -2 | -1 | -4.8 | 2
CC1(CO)COC(c2ccccc2)=N1 (stereo unspecified) | -5% | / | -13 | 4.1 | /
CCC(C(=O)Nc1cccc(C(F)(F)F)c1)c1ccccc1 (stereo unspecified) | 4% | -44 | -9 | 8.9 | -26
COc1ccc(S(=O)(=O)Nc2ccccc2C(=O)N2CCCCC2)cc1C | / | / | -5 | 5.8 | /
CCOC(=O)c1cc(NC(=O)c2ccc(C)cc2)c(=O)oc1-c1ccccc1 | -5% | -13 | -5 | 2.0 | -25

Five compounds already listed, arranged by length of the SMILES, low to high.
SMILES | Mtb H37Rv | Arbovirus anti | Mtb betalactam | RecA intein inh | YopH inh | others
Cc1nn(CC(=O)N2CCC(C)CC2)c(=O)c2cccn12 | / | / | -3 | 1.7 | /
C=CCN1C(=O)CSc2ccc(C(=O)NCc3ccco3)cc21 | 3% | 3 | / | 1.5 | -19
CCN(C(=O)c1cc2c(=O)n3ccccc3nc2s1)C1CCCCC1 | / | / | 0 | -38 | /
CCOC(=O)c1cc(NC(=O)c2ccc(C)cc2)c(=O)oc1-c1ccccc1 | -5% | -13 | -5 | 2.0 | -25
COc1ccc(N2CCN(S(=O)(=O)c3c(C)noc3/C=C/N(C)C)CC2)cc1 | / | / | -4 | -0.1 | /

Additional records follow:
SMILES | Mtb H37Rv | Arbovirus anti | Mtb betalactam | RecA intein inh | YopH inh | others
COc1ccccc1NC(=O)COC(=O)c1oc2ccccc2c1C | / | / | -3 | -4.6 | /
CC1CC(C)CN(C(=O)C2CCN(S(=O)(=O)N3CCC4(CC3)OCCO4)CC2)C1 (stereo unspecified) | / | / | -3 | -1.6 | /
CCn1c(-c2ccccc2Cl)nn(CC(=O)Nc2cc(Cl)ccc2Cl)c1=S | 1% | 12 | 54 | 7.6 | -38
CCOc1[nH]n(-c2ccccc2)c(=O)c1C=Nc1ccc(C(=O)OC)cc1 | 5% | 1 | 17 | 2.8 | /
Cc1c(O)ccc2cc(S(=O)(=O)c3ccccc3)c(=O)oc12 | / | / | -8 | i | /
CCOC(=O)c1c(NC(=O)CN2C(=O)NC3(CCCCCC3)C2=O)sc(C)c1-c1ccc(C)cc1 | 11% | -5 | ? | -0.3 | -4
O=C(CN1CCN(c2ccccc2O)CC1)NC(=O)NCc1ccco1 | -2% | -5 | -9 | -6.7 | -37
COc1cc2c(cc1OC)CN(c1ccc([N+](=O)[O-])c(C(F)(F)F)c1)CC2 | -17% | -10 | 0 | 23 | -23
Cc1cc(=O)n2nc(N3CCC(C(=O)NCc4ccccc4Cl)CC3)sc2n1 | / | / | 0 | -2.6 | /
COc1ccc2[nH]c(=O)c(COC(=O)c3cccs3)cc2c1 | -3% | 16 | 4 | -0.7 | -3
CC(C)NS(=O)(=O)c1ccc(CCC(=O)NCc2cccnc2)cc1 | -3% | -8 | 7 | -4.1 | -19 | Arbovirus anti repeat=1
COC(=O)N(c1ccccc1)P(=O)(Oc1ccccc1)Oc1ccccc1 | / | / | 3 | -1.9 | /
CC1CCC2(CC1)NC(=O)N(Cc1cc(=O)n3ccsc3n1)C2=O (stereo unspecified) | -4% | / | -5 | / | /
Cc1ccc2[nH]c3c(=O)n(CC(=O)Nc4ccccc4N4CCN(C)CC4)ncc3c2c1 | / | / | 0 | -0.7 | /
C#Cc1ccc([C@@H]2C=C(C(=O)OCC=C)O[C@H](OCc3ccc(CO)cc3)C2)cc1 | -3% | 7 | 78 | 14 | /
CC1CC(C)(C)NC(=S)N1CCCC(=O)Nc1ccccc1F (stereo unspecified) | -4% | 5 | -5 | -0.7 | /
COc1cccc(NC(=O)Cn2c(=O)n(CCC(=O)NC3CCN(Cc4ccccc4)CC3)c(=O)c3ccccc32)c1 | -2% | / | -3 | 1.6 | /
CCC(=O)N1CCCN(S(=O)(=O)c2ccc(C)cc2)C1c1ccc(OC)cc1 (stereo unspecified) | / | / | -7 | 1.3 | /
CCn1ncc(Br)c1C(=O)Nc1c(C)nn(Cc2c(F)c(F)c(F)c(F)c2F)c1C | / | / | -6 | -0.8 | /
CCOC(=O)C1CCN(c2ncnc3c2cnn3-c2ccc(Cl)cc2)CC1 | 20% | 0 | 59 | -1.9 | -24
CC1Cc2ccccc2N1c1ncnc2nc[nH]c12 (stereo unspecified) | 9% | 22 | 2 | 0.8 | -36
COc1nc(C)ccc1-c1noc(-c2ccccn2)n1 | -6% | -2 | -5 | -0.6 | -19
N#Cc1c(C(F)(F)F)cc(-c2cccs2)nc1SCc1ccc(Cl)nc1 | -8% | -14 | 1 | -19 | -12
COc1cc(OC)cc(-c2nnc(SCC(=O)N3CCCCC3)o2)c1 | 14% | -17 | 51 | 3.6 | 0
CC(C)CC(O)C1CCN(C(=O)CCc2nnc(-c3ccc4c(c3)OCO4)o2)CC1 (stereo unspecified) | / | / | 6 | 0.2 | /
O=C(Nc1cccc(O)c1)c1ccc(Br)cc1 | -3% | 7 | -4 | -2.1 | -161
Cc1ccc(NC(=O)CSc2nnc(N)s2)cc1S(=O)(=O)N1CCCCC1 | / | / | ? | 1.9 | /
O=C(CCCCCn1c(=O)[nH]c2ccsc2c1=O)NCc1ccc(F)cc1 | -4% | -9 | -12 | 0.6 | -1
O=C(CN1CCN(Cc2ccccc2Cl)C1=O)NCc1cccnc1 | -1% | / | 2 | -0.9 | /
CCCNC(=O)c1nc(C)c(C)nc1C(=O)Nc1cccc(Cl)c1 | -3% | -1 | 0 | -1.2 | -22
COc1cccc(/C=N/Nc2cc(C)nc(-c3ccccc3O)n2)c1O | 9% | -10 | 91 | 39* | /
Nc1cc(S(=O)(=O)Nc2cc(Cl)ccc2Cl)ccc1N1CCOCC1 | -10% | / | -3 | -2.1 | /
O=C(c1[nH]ncc1[N+](=O)[O-])N1CCOCC1 | / | / | -7 | -4.5 | /
OCC1(Cc2ccc(F)cc2)CCCN(CCc2ccccc2)C1 (stereo unspecified) | / | / | -2 | -0.7 | /
CCNC(=O)c1ccccc1SCC(=O)Nc1ccc(F)cc1 | 3% | 1 | 2 | -2.6 | /
O=C(/C=C/c1ccccc1)NC(=S)N1C[C@H]2C[C@H](C1)c1cccc(=O)n1C2 | / | / | 1 | 7.4 | /
CCc1cccc(NS(=O)(=O)c2csc(C(N)=O)c2)c1 | / | / | 4 | -3.2 | /
COc1ccccc1N1CCN(C(=O)CCCCn2c(=O)[nH]c3ccsc3c2=O)CC1 | -5% | -1 | -6 | / | -56 | Arbovirus anti repeat=3
COc1ccc(C(=O)/C=C(\C)NCc2ccc3c(c2)OCO3)cc1 | 0% | -11 | -2 | -0.3 | -45
COc1ccc(N(CC(=O)Nc2ccc(C)cn2)S(=O)(=O)c2c(C)nn(C)c2C)cc1 | 0% | -2 | 0 | / | -50 | Arbovirus anti repeat=-1
C=CCn1c(Sc2nc(C)cs2)nc2c1c(=O)[nH]c(=O)n2C | / | 3 | 4 | -0.1 | -44
Cc1ccsc1/C=C/C(=O)O | 6% | 2 | -7 | 2.2 | /
CCC(=O)Nc1ccccc1C(=O)OCC(=O)c1cccc2ccccc12 | 3% | -6 | 11 | 10 | -24
COc1ccc(NS(=O)(=O)c2ccc(C)cc2)c([N+](=O)[O-])c1 | 4% | / | -1 | -0.3 | /
C=CCn1c(=N)n(CC(=O)c2ccc(Br)cc2)c2ccccc21 | / | / | 14 | 7.5 | /
CC(=O)NCCNC(=O)c1ccc(Sc2ccccc2)c([N+](=O)[O-])c1 | -5% | 0 | -4 | -0.2 | /
N#Cc1ccc(-c2cn3c(n2)SCC3)cc1 | / | / | 8 | 0.7 | /
COc1ccccc1N=c1sc2ccccc2n1C | 6% | 5 | 6 | 2.6 | -13
CCCC(=O)Nc1c(-c2cccc(C)c2)c(=O)c2ccccc2n1C | / | / | -1 | -1.5 | /
Cc1onc(-c2ccccc2)c1C(=O)NNC(=S)NC(=O)c1ccc(Br)cc1 | ? | -20 | 78 | 13 | -8

By substructure, the compounds so far with a furan ring, fused or not
SMILES | Mtb H37Rv | Arbovirus anti | Mtb betalactam | RecA intein inh | YopH inh | others
C=CCN1C(=O)CSc2ccc(C(=O)NCc3ccco3)cc21 | 3% | 3 | / | 1.5 | -19
O=C1N(c2ccccc2)C[C@@H]2C[C@@H](c3cc4ccccc4o3)N3CCC[C@@]123 | 1% | -13 | / | 4.0 | /
COc1ccccc1NC(=O)COC(=O)c1oc2ccccc2c1C | / | / | -3 | -4.6 | /
O=C(CN1CCN(c2ccccc2O)CC1)NC(=O)NCc1ccco1 | -2% | -5 | -9 | -6.7 | -37

Later entries.
SMILES | Mtb H37Rv | Arbovirus anti | Mtb betalactam | RecA intein inh | YopH inh | others
COc1ccc(CC(=O)Nc2nc3ccccc3s2)cc1S(=O)(=O)N1CCOCC1 | -10% | 5 | -6 | 1.7 | -20
COc1cccc(NC(=O)NC2CCN(Cc3nnnn3Cc3ccc4c(c3)OCO4)CC2)c1 | 10% | / | 3 | 2.2 | /
CCOC(=O)c1[nH]c(C)c(C(=O)Nc2ccc(F)cc2)c1C | -1% | -4 | ? | -0.1 | -49
CCOC(=O)/C(=C/C1=CC(=C/N(C)C)/C(=O)O1)C(C)=O | -13% | / | -1 | -2.3 | /
Cc1ccc(-c2nc(CS(=O)(=O)CC(=O)Nc3cc(F)ccc3F)c(C)o2)cc1 | / | / | -4 | 1.4 | /
CCCCCOc1ccc(C(=O)CCC(=O)N2CCCC2)cc1 | / | / | 4 | -2.2 | /
CCn1c(NC(=O)/C=C/c2ccc(F)cc2)nc2ccccc21 | / | / | 94 | 1.4 | /
CCCCNC(=O)Cc1coc2ccc3ccccc3c12 | -4% | -2 | 5 | 0.2 | -5
O=c1nc2n(c3cccc(Cl)c13)CCCCC2 | -9% | 2 | -11 | -0.2 | /
COc1ccc(C(CNC(=O)c2cc(=O)[nH]c3ccccc23)N2CCCC2)cc1 (stereo unspecified) | -6% | 13 | ? | -7.2 | -33
O=C(N/N=C/c1ccccc1[N+](=O)[O-])c1cccs1 | 0% | / | 40 | 0.1 | /
Cc1cc(N2CCN(c3ccccc3)CC2)n2ncnc2n1 | -6% | -7 | 5 | -1.5 | /
O=C(c1cc2cc(Br)cc(Br)c2oc1=O)N1CCCc2ccccc21 | 8% | 0 | / | / | -43

Assay outcomes (PubChem BioAssay)

This is a subset; the hit share may differ from the screen's.
